Cruzain noTriton – cruzain (T. cruzi) inhibition without detergent; Potency, µM, without a hit: max response, negative = inhibition, most hits filed as inhibitors; P25779; purified cruzain, Z-FR-AMC fluorescence, no detergent; 2.3% of 200,000 active; active = well fitted curve in the direction sought with a large enough effect; inconclusive = small, poorly fitted or top-dose-only effect, or another doubt; inactive = no such curve, though single readings can be large; an effect the other way counts as inactive or inconclusive;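 note: plate controls were enzyme without inhibitor for no effect and buffer without enzyme for full effect; nearly all actives have a fitted effect of over 40% in size; top concentration of the series not given in the record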
Target sequence (P25779 123-467 limits assumed): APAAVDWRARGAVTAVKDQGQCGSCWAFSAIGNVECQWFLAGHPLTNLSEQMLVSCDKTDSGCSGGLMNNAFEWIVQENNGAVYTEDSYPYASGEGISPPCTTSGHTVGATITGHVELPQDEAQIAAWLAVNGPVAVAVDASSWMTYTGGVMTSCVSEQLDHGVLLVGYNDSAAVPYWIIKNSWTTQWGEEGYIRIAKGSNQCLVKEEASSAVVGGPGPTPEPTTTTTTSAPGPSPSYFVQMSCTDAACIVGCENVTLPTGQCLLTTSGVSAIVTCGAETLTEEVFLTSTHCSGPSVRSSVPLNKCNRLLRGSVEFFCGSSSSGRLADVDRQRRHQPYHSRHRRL
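Purified cruzain at 1.5 nM, pre-incubated 15 min with compound at room temperature in 100 mM sodium acetate pH 5.5, 5 mM DTT, 0.00005% Triton X-100. Reaction started with 2 uM Z-FR-AMC; AMC fluorescence increase over 60 s gives rate.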
MARV entry inh – inhibitors of Marburg virus binding or cell entry; Marburg virus pseudotyped entry inhibition, cell reporter; control for the full effect not named in the record; about a third of the inactives were read at about 46 µM; 1.8% of 300,000 active; Potency, µM (series often up to 37.8 µM), for the others: at the top dose activity change, negative = inhibition, hits mostly inhibitors; active = well fitted inhibition curve with a large enough effect; inconclusive = small, poorly fitted or top-dose-only effect, or effect the other way; inactive = flat fitted curve, though single readings scatter; tested in HEK293 cells; about a fifth of its hits are not listed in these tables; note: % is set by controls: 0 for no effect and ±100 for the full control effect; luciferase read-out
NS1 inh – blocks influenza NS1 protein function | S. cerevisiae slowed by influenza A NS1, growth recovery by OD600 | Potency, µM (highest dose often 46.1 µM), for inactives: top-dose activity, positive = more growth | 0.4% of 270,000 active | AID 2326; note: actives are rising curves; nearly all actives have a fitted effect of over 50% in size
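OD600 was taken as the measure of yeast growth restored by compound in an NS1-expressing S. cerevisiae strain. Cells had been washed out of glucose medium and diluted 1:100 into galactose -URA medium, pH 6.0.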
LASV entry inh – Lassa virus entry inhibition; Lassa virus pseudotype entry inhibition, cell reporter; control for the full effect not named in the record; Potency, µM (highest dose often 37.9 µM), for inactives: at the top dose activity change, negative = inhibition, most hits filed as inhibitors; 1.2% of 300,000 active; AID 540256; active means well fitted inhibition curve with a large enough effect; inconclusive means small, poorly fitted or top-dose-only effect, or effect the other way; inactive means flat fitted curve, though single readings scatter; tested in HEK293 cells; note: % is set by controls: 0 for no effect and ±100 for the full control effect; nearly all actives have a fitted effect of over 50% in size; luciferase read-out
2A StopGo – FMDV 2A StopGo reporter, luciferase signal; human cells with a luciferase reporter of 2A StopGo recoding; control for the full effect not named in the record; Potency, µM (top dose mostly 57.9 µM), without a hit: at the top dose signal change, negative = less light; 1.2% of 410,000 active; active = well fitted falling curve with a large enough effect; inconclusive = small, poorly fitted or top-dose-only effect; inactive = no such curve, though single readings can be large or run the other way; tested in HEK293T cells; note: % is set by controls: 0 for no effect and ±100 for the full control effect; nearly all actives have a fitted effect of over 45% in size; luciferase light after 4 h
SARS PLP yeast – SARS-CoV PLP inhibition in yeast. S. cerevisiae expressing SARS-CoV PLpro, growth rescue; control for the full effect not named in the record. Potency, µM (titrated, usually from 32.9 µM), without a hit: at the top dose activity, positive = growth rescue. 0.19% of 330,000 active. AID 485353; note: 0% is about no effect; nearly all actives have a fitted effect of over 55% in size; growth read by luminescence after 48 h
Cruzain Triton – blocks cruzain activity in presence of Triton detergent; P25779; purified cruzain, Z-FR-AMC fluorescence, 0.01% Triton; Potency, µM, for the others: max response, negative = inhibition, actives largely listed as inhibitors; 0.43% of 200,000 active; active = well fitted curve in the direction sought with a large enough effect; inconclusive = small, poorly fitted or top-dose-only effect, or another doubt; inactive = no such curve, though single readings can be large; an effect the other way counts as inactive or inconclusive;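 note: plate controls were neutral wells for no effect and buffer without enzyme for full effect; nearly all actives have a fitted effect of over 40% in size; top concentration of the series not given in the record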
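Sodium acetate buffer (100 mM, pH 5.5) containing 5 mM DTT and 0.01% Triton X-100 hosted 1.5 nM cruzain and test compound for 15 min at room temperature. Cleavage of 2 uM Z-FR-AMC was then tracked by fluorescence.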
RE007 growth inh – less growth of the S. pombe RE007 Vpr strain; S. pombe RE007 Vpr strain, BacTiter-Glo ATP luminescence, 24 h; control for the full effect not named in the record; Potency, µM (top dose mostly 92.2 µM), inactives show at the top dose activity change, negative = less growth; 0.21% of 360,000 active; AID 651644; active = well fitted falling curve with a large enough effect; inconclusive = small, poorly fitted or top-dose-only effect; inactive = no such curve, though single readings can be large or run the other way;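 note: % is set by controls: 0 for no effect and ±100 for the full control effect; nearly all actives have a fitted effect of over 50% in size; the assay follows cell death caused by Vpr and the record does not say whether a fall means rescue or toxicity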
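Fission yeast RE007 carrying one integrated HIV-1 vpr copy, seeded at OD 0.01 in PMG+AL medium with 23 nL pinned compound. Grown 24 h at 30 degrees; viability read by BacTiter-Glo luminescence after 5 min.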
* hit, by the source's call; ? = inconclusive; . = no result given; & = joins results of further samples; [ ] = remark or other dose. Unless noted, calls come from the whole dose curve; as a rule, active means well fitted rising curve with a large enough effect; inconclusive means small, poorly fitted or top-dose-only effect; inactive means no such curve, though single readings can be large or run the other way. Potency is the fitted concentration of half-maximal effect. Outcome played no part in choosing rows. Share with any hit: about 4.5%.

SMILES	Cruzain noTriton	MARV entry inh	NS1 inh	LASV entry inh	2A StopGo	SARS PLP yeast	Cruzain Triton	RE007 growth inh
Cc1nn(CC(=O)N2CCOCC2)c(=O)c2nn(-c3ccccc3)c(C)c12	.	.	-3%	.	8%	-1%	.	3%
CCN(c1ccccc1)S(=O)(=O)c1ccc(OC)c(NC(=O)c2cccs2)c1	.	-6%[46.1 µM]	2%	?	-3%	1%	.	-4%
COC(=O)c1c(-c2ccccc2)c(-c2ccccc2)nn(C)c1=O	3%	.	0%	-7%[46.1 µM]	-25%&-27%	0%	-0.1%	28%
COCCOc1ccc(C(F)(F)F)cc1NC(=O)c1ccc(F)cc1	6%	?	8%	-4%	-22%	19%	-2.0%	7%
Cc1ccc(C(=O)NCCNC(=O)c2ccco2)cc1C	.	3%[46.1 µM]	4%	-2%[46.1 µM]	11%	-1%	.	4%
CCN1CCN(c2oc(-c3ccc(COc4ccc(OC)cc4)o3)nc2C#N)CC1	-4%	-6%[46.1 µM]	.	-17%[46.1 µM]	-20%	.	-9.0%	.
CCc1nc(Nc2ccc(N3CCN(C(C)=O)CC3)cc2)c2oc3ccccc3c2n1	?	?	-42%	?	?	-6%	-14%	-5%
O=C(NCc1ccc(Cl)cc1)C1CCN(S(=O)(=O)c2ccc3c(c2)CCCN3C(=O)C2CCC2)CC1	17%	.	.	?	?	.	-4.7%	.
Cc1noc(COc2ccccc2OCC(O)CNC(C)(C)C)n1 (configuration not stated)	-3%	-8%	5%	-8%	-17%	11%	3.4%	12%
O=C(Nc1ccc(CN2CCOCC2)cc1)c1ccc(Cl)cc1Cl	.	.	3%	.	-11%	-2%	.	-6%
O=c1c(Cc2ccc(Cl)cc2)c(O)ccn1Cc1ccccc1	8%	4%[46.1 µM]	8%	6%	-10%	-2%	-2.9%	1%
CC(=O)OCC(=O)[C@@]1(O)CC[C@H]2[C@@H]3C[C@H](C)C4=CC(=O)C=C[C@]4(C)[C@H]3[C@@H](O)C[C@@]21C	.	.	-11%	.	-15%	4%	.	-17%[18.4 µM]
COc1ccc(C(=O)NCCSc2c[nH]c3ccccc23)cc1OC	-9%	6%[46.1 µM]	.	0%[46.1 µM]	-27%	.	-8.3%	.
c1ccc2c(c1)CCCC2NC1=NCCC1 (configuration not stated)	1%	14%	1%	0%	-27%	-5%	3.3%	8%
CN(CC(O)COc1ccc2ccccc2c1)C1CCCCC1 (configuration not stated)	.	?	9%	7%	-8%	-13%	.	-7%
Cc1cccc(N(CC(=O)NCCSCc2ccccc2)S(C)(=O)=O)c1C	.	4%[46.1 µM]	.	14%	-12%	0%	.	4%
CN(CCOc1ccccc1)C(=O)c1cc(COc2c(F)cccc2F)on1	.	.	-36%	.	75%[activator]	-23%	.	-15%
COc1ccc(C(=O)Nc2cc(C)on2)cc1OC	.	.	1%	.	20%	0%	.	-2%
CN(Cc1nc2ccccc2n1C)C(=O)c1cccs1	-5%	4%	3%	-1%	-10%	0%	3.6%	1%
c1ccc(COn2c(-c3ccccc3)nc3c2CCc2nonc2-3)cc1	-2%	3%	1%	-8%	0%	0%	-6.6%	21%
CC12CN3CC(C)(CN(C1)C3c1ccc(Br)cc1)C2 (configuration not stated)	4%	5%	9%	-5%	8%	6%	0.4%	26%
CC(CCCc1ccccc1)NC(=O)c1nn(-c2ccc(Cl)cc2)nc1CO (configuration not stated)	4%	3%[46.1 µM]	.	?	-11%	.	-6.7%	.
O=C(NC1CCN(Cc2nnnn2CCc2ccccc2)CC1)c1ccccc1F	4%	2%&-1%	3%	-4%	3%	-1%	-9.0%	6%
CS(=O)(=O)N(CC(=O)NC1CCCCCC1)Cc1ccc(Cl)cc1	?	2%	-1%	0%	-27%	0%	1.2%	-1%
COCCn1c(N)c(C(=O)NCc2cccs2)c2nc3ccccc3nc21	?	?	-101%	0%	4%	-25%	-11%	11%
CC(=O)Oc1ccc(N2C(=O)C3C4C=CC(O4)C3C2=O)cc1 (configuration not stated)	16%	23%	-33%	-9%	.	-66%	4.9%	?
Cc1ccc(NC(=O)CSc2nnc(-c3ccncc3)s2)cc1	.	2%[46.1 µM]	-7%	7%	7%	-6%	.	20%
CN(C)CCCCOc1cccc(Br)c1	5%	13%	4%	9%	-18%	10%	1.7%	20%
O=C(CSc1c2c(nc3cc(Cl)ccc13)CCCC2)NCCN1CCOCC1	.	?	.	13%[46.1 µM]	?	6%	.	-3%
CCOc1ccccc1NC(=O)CN1C(=O)C(=O)c2ccccc21	-6%	-12%[46.1 µM]	.	-16%[46.1 µM]	12%	.	-4.2%	.
Cc1cc(O)c(/C=N/c2ccccn2)c(=O)o1	-9%	3%	4%	-12%	0%	0%	1.4%	0%
CCOc1ccc2nc(Cl)c(C3CC(c4ccccc4)=NN3C(=O)c3ccco3)cc2c1 (configuration not stated)	-25%	14%	9%	15%	.	21%	1.2%	.
CS(=O)(=O)N(CC(=O)NCCSCc1ccco1)c1ccc(Cl)cc1	.	-1%[46.1 µM]	0%	0%	-9%	0%	.	10%
CCOc1ccc2[nH]c(=O)c(CN(Cc3cccs3)Cc3nnnn3C(C)(C)C)cc2c1	?	?	-2%	?	.	-2%	-7.9%	-9%
O=C(NNC(=O)c1ccccc1[N+](=O)[O-])c1csc(N2CCOCC2)n1	.	?	.	-11%	-22%	1%	.	2%
COc1ccc(NC(C)=O)cc1NC(=O)CN1CCN(c2ccc(F)cc2)CC1	4%	.	.	?	-19%	.	0.9%	.
CCOc1ccc(/C=N/NC(=O)c2ccccc2NC(=O)c2ccc(OC)cc2)cc1	1%	2%	-4%	-22%	-17%	-3%	-12%	-18%
O=C(O)CC(NS(=O)(=O)c1ccc2c(c1)OCCO2)c1ccccc1[N+](=O)[O-] (configuration not stated)	.	-13%[46.1 µM]	.	-1%[46.1 µM]	9%	14%	.	3%
CCc1c(C(=O)Nc2ccccc2)c(C)[nH]c(=S)c1C#N	0%	13%	0%	5%	.	0%	-4.9%	-8%
O=C(Nc1ccccc1)C(=O)Nc1ccccn1	-11%	?	-26%	?	.	-7%	3.5%	?
CC(=O)c1cccc(NC(=O)N2CCCC2C(=O)Nc2cc(C)ccc2C)c1 (configuration not stated)	-3%	-1%	-2%	0%	-3%	1%	1.3%	15%
CCOc1ccccc1Oc1c(C)oc2cc(OC(=O)c3ccco3)ccc2c1=O	-9%	0%	-12%	-22%	.	-22%	-2.8%	-2%
Cc1ccccc1-c1noc(-c2ccccc2F)n1	0%	27%	6%	13%	54%[activator]	3%	-4.8%	-16%
CCN(CC)S(=O)(=O)c1csc(C(=O)NCc2ccccc2)c1	-10%	24%	-8%	?	?	-3%	-0.7%	7%
COc1ccc(NC(=O)c2cc3ccccc3o2)cn1	.	.	-18%	.	45%[activator]	-6%	.	-23%
CC(=O)Nc1ccccc1C(=O)OCc1ccc(F)cc1	.	?	-4%	-18%	5%	0%	.	19%
COc1ccccc1C(=O)NCC(=O)N/N=C(\C)Cc1ccccc1	.	16%[46.1 µM]	-1%	6%[46.1 µM]	-5%	6%	.	5%
Cc1cccc(CCNC(=O)CCNS(=O)(=O)c2cc(Br)cnc2N)c1	.	.	-17%	.	9%	2%	.	-5%
Cc1cc(NC(=O)CCC(=O)N(CC(C)C)C(C(=O)NC(C)(C)C)c2ccccc2Cl)no1 (configuration not stated)	.	?	5%	26%	-12%	0%	.	-10%
c1ccc2c(Nc3ccc4c(c3)OCCO4)c3c(nc2c1)CCCC3	.	?	.	7.9µM*	-19%	10%	.	10%
CCCN(CCC)C(=O)C1CCCN(S(=O)(=O)c2ccc3c(c2)oc(=O)n3C)C1 (configuration not stated)	1%	0%&0%[46.1 µM]	7%	-9%[46.1 µM]	-2%&-12%	-1%	4.0%	12%
CCOc1ccc(S(=O)(=O)Nc2nc3ccccc3nc2-n2ccc(=NC(=O)c3ccccc3C)cc2)cc1	.	0%	11%	-36%	8%	2%	.	-5%
COc1ccc(N2CC(C(=O)Nc3ccc(S(=O)(=O)Nc4nccs4)cc3)CC2=O)cc1 (configuration not stated)	.	12%[46.1 µM]	.	20%	1%	0%	.	12%
CCOC(=O)C1CCCN(C(=O)C2CCN(C(=O)Nc3ccccc3)CC2)C1 (configuration not stated)	.	6%	.	14%	30%[activator]	1%	.	9%
Nc1nc(-c2ccco2)nn1C(=O)c1ccc([N+](=O)[O-])cc1	.	0%	0%	-2%[46.1 µM]	-18%	0%	.	-14%
CCCN(CCC)c1cc(C)nc2nc(-c3ccc(Cl)cc3)nn12	-1%	?	.	0%[46.1 µM]	-13%	.	-0.7%	.
CCC(=O)NC(NC(=S)Nc1c(C)n(C)n(-c2ccccc2)c1=O)C(Cl)(Cl)Cl (configuration not stated)	-4%	13%	-1%	1%	-19%	0%	-1.7%	-10%
Fc1ccc2nc(Nc3nc4c(F)cc(F)cc4s3)sc2c1	?	?	-14%	-8%	-28%	-17%	-1.7%	-25%
Cc1c(CN2CCC(n3nccc3NC(=O)C3CCOC3)CC2)[nH]c2ccccc12 (configuration not stated)	.	-6%	-1%	6%	-3%	-2%	.	-5%
COc1ccc(NC(=O)CCc2nc3ccccc3[nH]2)cc1	.	?	.	-1%[46.1 µM]	0%	-5%	.	4%
COCCCN(C(=S)Nc1cccc(Cl)c1)C(C)c1ccncc1 (configuration not stated)	4%	-9%	13%	?	4%	10%	5.7%	5%
COCCCN(C(=O)c1ccc(N2CCCC2=O)cc1)c1c(N)n(Cc2ccccc2)c(=O)[nH]c1=O	.	12%	.	-8%	0%	.	.	-12%

2 of the compounds above, as labelled records.
> COCCCN(C(=S)Nc1cccc(Cl)c1)C(C)c1ccncc1 (configuration not stated)
- Cruzain noTriton: 4%
- MARV entry inh: -9%
- NS1 inh: 13%
- LASV entry inh: ?
- 2A StopGo: 4%
- SARS PLP yeast: 10%
- Cruzain Triton: 5.7%
- RE007 growth inh: 5%
> COCCCN(C(=O)c1ccc(N2CCCC2=O)cc1)c1c(N)n(Cc2ccccc2)c(=O)[nH]c1=O
- Cruzain noTriton: .
- MARV entry inh: 12%
- NS1 inh: .
- LASV entry inh: -8%
- 2A StopGo: 0%
- SARS PLP yeast: .
- Cruzain Triton: .
- RE007 growth inh: -12%

From PubChem
